Compound activity as filed in PubChem BioAssay.
VACV E9 pol inh = vaccinia E9 polymerase processive synthesis inhibition | in vitro processive DNA synthesis, absorbance read-out; stronger effect = lower value; some inactives read as strong as hits | normalized absorbance, % (concentration not given with the values) | actives 0.94% (n = 46,000) | AID 493162;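 active means replicate mean up to 90% and picked by the depositor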;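 further: 100% = median of the test wells of a plate; 100 nL library stock went into each well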
Active calls of the source: *; & = joins results of further samples. Only part of the results is shown; the hit share may differ from the screen's.

SMILES | VACV E9 pol inh
Cc1ccc(C(=O)NCC2CCCO2)o1 (stereo not drawn) | 101
O=C(O)C(c1ccccc1)c1cn2cc(Cl)ccc2n1 (stereo not drawn) | 103
CC(=O)Nc1ccc(Nc2c3c(c(C#N)c4nc5ccccc5n24)CCCC3)cc1 | 100
CCCCCCCCCCCCCCCCOCC(CO)OC(C)=O (stereo not drawn) | 99
O=C(CSc1nc2ccccc2o1)OCC(=O)N1c2ccccc2Sc2ccccc21 | 96
CC(C)OC(=O)Nc1ccccc1 | 101
OC1CCN(C(=S)Nc2ccc(Nc3ccccc3)cc2)CC1 | 100
CCCCCCCC/C=C\C/C=C\C/C=C\CCCC(=O)NCCO | 100
O=C(CCn1nc(-c2ccccc2)ccc1=O)N1CCOCC1 | 87
CCc1ccc(NC(=O)c2cc3c(=O)n(C)c4ccccc4c3s2)cc1 | 100
CCOC(=O)COc1ccccc1O | 103
CSc1sc(-c2ccn(C(=O)Nc3ccccc3)n2)c2c1C(=O)CC(C)(C)C2 | 87
CC1CC(C)N(C(=O)CSc2nc3c(c(C(F)(F)F)n2)CCc2ccccc2-3)C(C)C1 (stereo not drawn) | 94
O=C(c1ccc(-c2cccs2)s1)N1CCN(c2ncccc2C(F)(F)F)CC1 | 105
Cc1ccc(Nc2cc(C(=O)N3CCCC3)c3ccccc3n2)cc1C | 102
CC(=O)SCC(=O)N=c1sc2cc(F)ccc2n1C | 103
CCc1cc2c(NCCO)ncnc2s1 | 106
O=C(NCc1nc(-c2ccc(Cl)cc2)no1)NC1CCCCC1 | 99
CC(=O)OC[C@H]1O[C@@H](Nc2ccc(C)cc2)[C@H](OC(C)=O)[C@@H](OC(C)=O)[C@@H]1OC(C)=O | 100
Cc1c2cnn(CC(=O)N3CCc4ccccc43)c(=O)c2c(C)n1Cc1ccc(Cl)cc1 | 104
Cc1cc(S(=O)(=O)N2CCN(Cc3ccccc3)CC2)c(C)cc1Cl | 72
CC1CCN(S(=O)(=O)c2ccc(NC(=O)/C=C/c3ccco3)cc2)CC1 | 103
COc1ccc(C2CC(=O)c3cnn(-c4nc5ccccc5s4)c3C2)cc1 (stereo not drawn) | 92
Fc1ccc(C(c2ccc(F)cc2)N2CCN(C/C=C/c3ccccc3)CC2)cc1 | 99&94
N#Cc1c(SCc2ccccc2)nc2sccn12 | 96
O=C(CSc1ccc2nnc(-c3cccc(F)c3)n2n1)NCc1ccccc1 | 90
NS(=O)(=O)c1ccc(NC(=O)c2ccccc2C(=O)N2CCCCC2)cc1 | 100
O=C(CSc1nnc(-c2ccccc2)o1)Nc1nccs1 | 99
O=S(=O)(NC1CCN(Cc2c(F)cccc2Cl)CC1)c1cccc2nonc12 | 103
COC(=O)Cc1[nH]n(-c2nc3ccccc3s2)c(=O)c1C(C)=O | 100
COc1cccc(C(=O)Nc2nnc(SCc3ccccc3)s2)c1 | 100
CCCCC1(c2cc(O)cc(O)c2)SCCS1 | 101
O=C1NC(=S)S/C1=C\c1ccccc1C(F)(F)F | 73
CC(C)NC(=O)CSCc1csc2c1CCCC2 | 84
CN=C1S/C(=C/c2cccc(F)c2)C(=O)N1C | 100
Cc1cc(O)c(-c2[nH]ncc2-c2nc(C)cs2)c(O)c1 | 101
Cc1sc2ncn3nnnc3c2c1-c1ccccc1 | 99
Cc1c(CCC(=O)O)c(=O)oc2cc3occ(-c4ccccc4)c3cc12 | 76
CCOC(=O)c1csc(Cc2c(Cl)sc3ccc(Cl)cc23)n1 | 101
CCOc1ccc(N(CC)c2nc(-c3ccc(OC)cc3)no2)cc1 | 103
COC(=O)C1=C(C)NC(C)=C(C(=O)OC)C1c1cccs1 | 98
CCc1ccc(NC(=O)CSc2ncnc3ccccc23)cc1 | 102
CCn1c(SCc2nc3ccccc3[nH]2)nc2cc(C(=O)OC)ccc2c1=O | 100
O=C(CC1CC2CCC1C2)NC1CCCCCCC1 (stereo not drawn) | 101
CCc1cnc(/N=C/N(C)C)nc1-c1c(F)cccc1F | 101
CCN(CC)C(=O)c1c[nH]c2ccccc2c1=O | 90
C=CCn1c2ccccc2c2nnc(SC(CC)C(=O)Nc3nnc(C(F)(F)F)s3)nc21 (stereo not drawn) | 100
O=C(c1cc(-c2ccc(F)cc2)no1)N1CCOCC1 | 105
CCCCCCCCCCCCCCCC(=O)N[C@H](CN1CCOCC1)[C@H](O)c1ccccc1 | 101
CN(C)C(=O)NC1CC(C)(C)N(O)C(C)(C)C1 | 100
CN(C1CCCCC1)S(=O)(=O)c1ccc(C(=O)Nc2sccc2C#N)cc1 | 120
CCC(=O)Nc1ccc(-c2csc(-c3ccccc3)n2)cc1 | 100
NC(=O)c1ccccc1NCC(=O)c1ccc(F)cc1 | 91
Cc1cc(C(=O)CSc2ncnc3sc4c(c23)CCCC4)c(C)n1Cc1ccco1 | 100
O=C(Nc1ccccc1)N1CCN(c2ccc(F)cc2)CC1 | 103
CC1Cc2ccccc2N1C(=O)CC(=O)N1c2ccccc2CC1C (stereo not drawn) | 101
O=C(c1cccc(CN2CCN(c3nc(-c4ccccc4)ns3)CC2)c1)N1CCC(O)CC1 | 100
Cc1ccc(Oc2ccccc2)c(NC(=O)c2ccccc2)c1 | 98
COc1ccc(-c2nnc(-c3ccc(S(=O)(=O)c4ccccc4)cc3)o2)cc1OC | 100
COC(=O)c1sccc1NC(=S)N(C)CCC#N | 100

For convenience, some entries already given.
SMILES | VACV E9 pol inh
O=C1NC(=S)S/C1=C\c1ccccc1C(F)(F)F | 73
CC(C)NC(=O)CSCc1csc2c1CCCC2 | 84
CN=C1S/C(=C/c2cccc(F)c2)C(=O)N1C | 100
Cc1cc(O)c(-c2[nH]ncc2-c2nc(C)cs2)c(O)c1 | 101
Cc1sc2ncn3nnnc3c2c1-c1ccccc1 | 99
Cc1c(CCC(=O)O)c(=O)oc2cc3occ(-c4ccccc4)c3cc12 | 76
CCOC(=O)c1csc(Cc2c(Cl)sc3ccc(Cl)cc23)n1 | 101
CCOc1ccc(N(CC)c2nc(-c3ccc(OC)cc3)no2)cc1 | 103
COC(=O)C1=C(C)NC(C)=C(C(=O)OC)C1c1cccs1 | 98
CCc1ccc(NC(=O)CSc2ncnc3ccccc23)cc1 | 102
CCn1c(SCc2nc3ccccc3[nH]2)nc2cc(C(=O)OC)ccc2c1=O | 100
O=C(CC1CC2CCC1C2)NC1CCCCCCC1 (stereo not drawn) | 101
CCc1cnc(/N=C/N(C)C)nc1-c1c(F)cccc1F | 101
CCN(CC)C(=O)c1c[nH]c2ccccc2c1=O | 90
C=CCn1c2ccccc2c2nnc(SC(CC)C(=O)Nc3nnc(C(F)(F)F)s3)nc21 (stereo not drawn) | 100
O=C(c1cc(-c2ccc(F)cc2)no1)N1CCOCC1 | 105
CCCCCCCCCCCCCCCC(=O)N[C@H](CN1CCOCC1)[C@H](O)c1ccccc1 | 101
CN(C)C(=O)NC1CC(C)(C)N(O)C(C)(C)C1 | 100
CN(C1CCCCC1)S(=O)(=O)c1ccc(C(=O)Nc2sccc2C#N)cc1 | 120
CCC(=O)Nc1ccc(-c2csc(-c3ccccc3)n2)cc1 | 100
NC(=O)c1ccccc1NCC(=O)c1ccc(F)cc1 | 91
Cc1cc(C(=O)CSc2ncnc3sc4c(c23)CCCC4)c(C)n1Cc1ccco1 | 100
O=C(Nc1ccccc1)N1CCN(c2ccc(F)cc2)CC1 | 103
CC1Cc2ccccc2N1C(=O)CC(=O)N1c2ccccc2CC1C (stereo not drawn) | 101
O=C(c1cccc(CN2CCN(c3nc(-c4ccccc4)ns3)CC2)c1)N1CCC(O)CC1 | 100

Continued.
SMILES | VACV E9 pol inh
CCOC(=O)N1CCC(NC(=O)C2CCCCN2S(=O)(=O)c2ccc(F)cc2)CC1 (stereo not drawn) | 104
Clc1ccc(OCc2nc(CSc3cccs3)no2)c(Cl)c1 | 100
COc1ccc(CCN2CC(O)=C(c3nc4ccccc4s3)C2=N)cc1OC | 94
O=C1CCCN2N=C(SCC(=O)NCCc3ccccc3)SC2=N1 | 101
Cn1ccnc1C(=O)Oc1ccccc1F | 100
CCC(C)(C)NC(=O)COc1ccc2c(C)cc(=O)oc2c1 | 102
CCc1ccc(N2C(=O)CN(Cc3ccccc3)C2=S)cc1 | 102
COC(=O)c1ccc(NC(=O)Nc2ccccc2)cc1 | 101
CC(=O)Nc1nc(C2CC2)cc(-c2ccccc2)c1C#N | 85*
O=C(c1c(Cl)nc2sccn12)N1CCN(Cc2ccccc2)CC1 | 101
CSc1cccc(NC(=O)N(Cc2ccccc2)C(=O)CC#N)c1 | 100
CCCSc1nnc(Cn2c(=O)sc3ccccc32)n1-c1ccccc1 | 87
CCN(CC)C(=S)SCc1nc(N)nc(Nc2ccccc2)n1 | 100
CCS(=O)(=O)c1ccsc1S(=O)(=O)CC | 102
FC(F)(F)c1ccc(C=Nc2cc(Cl)cc(Cl)c2)cc1 | 101
O=C1O/C(=C/C=C2/OC(=O)c3ccccc32)c2ccccc21 | 95
Cc1cc(/N=C/C=C2\N(C)c3ccccc3C2(C)C)n(CCC#N)n1 | 107
O=C(NCC1COc2ccccc2O1)Nc1ccc(Cl)cc1 (stereo not drawn) | 109
COc1cccc(NC(=S)N2CCC3(CC2)CC(=O)c2ccccc2O3)c1 | 107
CCc1cc2c(=O)c(-c3nc4ccccc4n3C)c(C(F)(F)F)oc2cc1O | 101
Cc1ccc(S(=O)(=O)c2cn[nH]c2-c2ccc(Cl)cc2)cc1 | 90
CC(C)CCn1c(=O)c2[nH]c(=S)[nH]c2n(CC(C)C)c1=O | 100
Cn1nc(-c2ccccn2)sc1=S | 93
CC(C)N1CCc2c(sc(NC(=O)CCOc3ccccc3)c2C(N)=O)C1 | 100
NC1C[C@H]1c1ccccc1 (stereo partly drawn) | 100
Cn1ncc2c(NN3C(=O)CCC3=O)ncnc21 | 90
O=C(O)c1ccccc1SCC(=O)C12CC3CC(CC(C3)C1)C2 | 98
O=C1c2ccccc2C2N1CCCN2S(=O)(=O)c1cccc(C(F)(F)F)c1 (stereo not drawn) | 102
O=C(CCCSc1nc(-c2ccco2)cc(C(F)(F)F)n1)NC1CCCC1 | 84
CC(C)(C)SCC(O)Cn1c2ccc(Cl)cc2c2cc(Cl)ccc21 (stereo not drawn) | 100
CCC(C)c1cc(N)nc2nc3ccccc3n12 (stereo not drawn) | 98
CCCCC1(CN2CCN(Cc3ccccc3)CC2)C(=O)N(c2ccccc2)N(c2ccccc2)C1=O | 99
CC(C)CCn1c(C(C)O)nc2ccccc21 (stereo not drawn) | 100
COC(=O)c1cnc(N2CCOCC2)nc1C(F)(F)F | 105
O=C(NC(Cc1ccccc1)C(=O)Nc1nc(-c2ccccc2)cs1)Oc1ccccc1 (stereo not drawn) | 100
Cc1nc(C)c(-c2n[nH]c(=S)n2-c2ccccc2C(F)(F)F)s1 | 93
Cc1cc2ncc(C(=O)Nc3ccccc3)c(C)n2n1 | 101
Cc1cccc(N2CCN(CCNC(=O)CCn3c(=O)c4cccn4c4cccnc43)CC2)c1C | 99
CC(C)(C)c1ccc(OCC(=O)Nc2ccc3c(c2)oc2ccccc23)cc1 | 100
O=C(Nc1nc(-c2ccncc2)cs1)C1COc2ccccc2O1 (stereo not drawn) | 98
CCc1ccc2[nH]c3nc(=S)[nH]nc3c2c1 | 100
Cc1cccc(N(Cc2cc(=O)n3ccccc3n2)C2=NC3CS(=O)(=O)CC3S2)c1 (stereo not drawn) | 101
COC(=O)c1cn(NC(=O)C2CCCCC2)c(=O)c2ccccc12 | 105
O=C(O)CCCn1c(=S)[nH]c2cc3c(cc2c1=O)OCO3 | 99
O=C(c1cc(-c2ccc(Br)cc2)nc2ccccc12)N1CCCC1 | 102
COC(=O)C1Cc2ccccc2CN1S(=O)(=O)c1ccc(C)cc1 (stereo not drawn) | 98
NC(N)=NS(=O)(=O)c1ccc(NC(=O)OC2CCCC2)cc1 | 100
CS(=O)(=O)Nc1nc2n(n1)C(c1ccccc1)C=C(c1ccccc1)N2 (stereo not drawn) | 92
CC1(C)Cc2nc3sc4c(NN)ncnc4c3cc2CO1 | 100
OCC[n+]1c(-c2ccccc2)csc1Nc1ccccc1 | 105
C=CCN=C1SC(C)(C)C(=O)N1S(=O)(=O)c1ccc(C)cc1 | 100
CCC(=NCc1ccc(C#N)cc1)c1ccccc1O | 100
CCC(C)NC(=O)N1c2ccccc2Sc2ccccc21 (stereo not drawn) | 100
CN1C(=O)/C(=C/c2ccc(C(=O)N3CCC(Cc4ccccc4)CC3)cc2)Oc2ccccc21 | 106
Cc1ccc(Cl)cc1N1CCN(C(=O)CCN2C(=O)COc3ccccc32)CC1 | 105
Cc1oc(-c2ccccc2F)nc1CS(=O)CC(=O)NCc1ccccn1 (stereo not drawn) | 96
COc1ccccc1NC(=O)COC(=O)C1CCCC1 | 104
CCn1c2c(c3cc(C4CCCCC4)ccc31)CCC/C2=N\O | 98
CC1(C)CC(=O)c2sc(NC(=O)c3cccs3)nc2C1 | 91
CCOC(=O)c1c(NC(=O)c2ccccc2)sc2c1CC(C(C)C)OC2 (stereo not drawn) | 100

Other entries:
SMILES | VACV E9 pol inh
Clc1ccc(N=Cc2ccc(Br)o2)cc1Cl | 100
Cc1ccc(-c2cn3cccnc3n2)cc1NC(=O)CC(C)(C)C | 103
O=C(/C=C/c1cn(-c2ccccc2)nc1-c1cccnc1)N1CCCCC1 | 102
c1ccc(NCc2cccc3ccccc23)nc1 | 109
O=C1CC(c2nnc(-c3ccccc3)o2)CN1c1ccccc1 (stereo not drawn) | 96
c1ccc(-n2ncc3c2ncn2nnnc32)cc1 | 100
O=C(CSc1ccc2ccccc2c1)OCC(=O)N1CCCC1 | 82
CCOC(=O)C(CC)Sc1nc2c(cnn2-c2ccc(C)c(C)c2)c(=O)[nH]1 (stereo not drawn) | 96
CCOC(=O)C1=CN(C)C=C(C(=O)OCC)C1c1cccc(OCc2ccccc2)c1 | 100
CC(C)N(C(C)C)C1N=C(c2ccccc2)c2cc(Cl)ccc2N(C)C1=O (stereo not drawn) | 106
Nc1ccccc1N=c1cc(-c2ccc3c(c2)OCO3)oc2ccccc12 | 85
CC1CC1C(=O)OCC(=O)Nc1ccc(C(N)=O)cc1 (stereo not drawn) | 104
CC1=C(C(=O)OCc2ccccc2)C(c2cccc(O)c2)C2=C(CC(c3ccccc3)CC2=O)N1 (stereo not drawn) | 101
